Bioassay records as filed in PubChem BioAssay.
Arbovirus inh = antivirals against arbovirus infection, primary screen, cell-based, full library, 10K replicate subset; arbovirus infection cell-based antiviral screen; inhibition, % at 10 µM; 200,000 tested, 0.37% active; AID 1251, 2008;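 active means inhibition from about 30%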;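 further: bluetongue infection of BSR cells; cell survival read as ATP light after 72 h; 0% = infected wells without compound and 100% = uninfected wells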
YopH PTP inh = YopH tyrosine phosphatase inhibitors, primary screen, biochemical, fluorescence Ex485/Em525. YopH tyrosine phosphatase [Yersinia enterocolitica]. inhibition, %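 (about 10 µM by stock and volumes)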. 140,000 tested, 0.16% active;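 active means inhibition of 50% or more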;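 further: controls were vehicle for no effect and minimum signal wells for full effect; inactives centre near -20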
RecA intein inh = Mtb RecA intein splicing inhibitors, primary screen, biochemical, fluorescence, HTS; Protein RecA (Mycobacterium tuberculosis (strain ATCC 25618 / H37Rv)), P9WHJ3; cell-free RecA intein splicing; inhibition, %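 (about 9 µM by stock and volumes)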; 290,000 tested, 0.75% active; AID 2221, 2009; in the data active means inhibition above about 30%; inconclusive means no clear call, values can overlap the other calls;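 further: 0% = vehicle wells and 100% = reference inhibitor control wells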
Target sequence (P9WHJ3 whole entry, looked up): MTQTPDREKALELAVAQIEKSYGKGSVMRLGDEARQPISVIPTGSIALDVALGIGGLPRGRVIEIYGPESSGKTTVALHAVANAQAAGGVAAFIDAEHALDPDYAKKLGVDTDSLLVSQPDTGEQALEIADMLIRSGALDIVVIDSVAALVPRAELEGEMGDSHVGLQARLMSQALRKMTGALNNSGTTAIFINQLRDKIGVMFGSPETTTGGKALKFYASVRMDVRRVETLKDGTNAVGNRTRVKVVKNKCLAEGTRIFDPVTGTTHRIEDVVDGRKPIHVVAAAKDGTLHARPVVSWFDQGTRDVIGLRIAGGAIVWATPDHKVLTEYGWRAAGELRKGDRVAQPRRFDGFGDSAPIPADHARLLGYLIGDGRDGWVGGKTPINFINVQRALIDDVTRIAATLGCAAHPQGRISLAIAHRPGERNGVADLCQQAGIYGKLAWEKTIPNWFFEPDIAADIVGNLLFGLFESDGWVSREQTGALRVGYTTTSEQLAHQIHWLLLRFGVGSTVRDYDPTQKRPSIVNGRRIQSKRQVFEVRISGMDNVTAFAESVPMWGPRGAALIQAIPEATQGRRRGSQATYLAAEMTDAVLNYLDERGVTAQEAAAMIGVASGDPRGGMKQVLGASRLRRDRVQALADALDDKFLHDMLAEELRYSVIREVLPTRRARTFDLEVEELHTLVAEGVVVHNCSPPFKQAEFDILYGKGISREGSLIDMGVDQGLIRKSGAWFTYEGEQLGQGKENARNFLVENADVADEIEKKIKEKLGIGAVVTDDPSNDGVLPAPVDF
Mtb betalactam = beta-lactam sensitization of Mtb H37Rv, H37Rv. M. tuberculosis H37Rv growth with meropenem, percent inhibition; hits of this screen are not shown here. inhibition, % at 25 µM. 330,000 tested, 0.27% active;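 active means about 74% or more and at least 40 points above the plate without the antibiotic, then above 30% in a dose series; inconclusive means first-round hits that could not be retested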;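 further: growth measured after seven days incubation then overnight dye step; 0% = bacteria only wells and 100% = bacteria with antibiotic; twin plates without the antibiotic show which effects depend on it; some results filed as inactive read as strong as hits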
Mtb growth = M. tuberculosis H37Rv growth inhibitors, H37Rv strain (AID 1626). M. tuberculosis H37Rv growth inhibition; higher % means a stronger effect. inhibition, % at 10 µM, or IC50 in µM where a hit was titrated. 220,000 tested, 0.95% active;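 active means confirmed in a dose series; inconclusive means inhibition above 80% but not taken into the dose series; inactive means below 80% or under 30% at every dose of the series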;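 further: bacteria incubated seven days before Alamar blue readout; 0% = bacteria only wells and 100% = bacteria with antibiotic wells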
Arbovirus inh repeat = also measured in Arbovirus inh; calls as there; inhibition, %; measured here: 10K subset replicate screen; many hits read low in the repeat;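 first of two repeat runs on a subset; 0% = infected and 100% = uninfected wells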
The depositor's hits bear a star; i = inactive; ? = inconclusive; · = no result given.

SMILES | Arbovirus inh | YopH PTP inh | RecA intein inh | Mtb betalactam | Mtb growth | others
Cc1cccc(C(=O)N[C@H](C(=O)Nc2nccs2)C(C)C)c1 | 3 | -17 | -0.9 | 11 | 12%
Cc1csc2ncnc(N3CCN(S(=O)(=O)c4cccc(C(F)(F)F)c4)CC3)c12 | · | · | 9.4 | -1 | ·
Cc1ccccc1OCCN1C(=O)NC2(CCc3ccccc32)C1=O (stereo unspecified) | 2 | -30 | · | 3 | -6%
Cc1ccc(C(=O)CN2C(=O)NC3(CCc4ccccc43)C2=O)c(C)c1 (stereo unspecified) | · | · | 1.1 | 2 | ·
CCOc1cccc2sc(N3CCN(C(=O)c4ccc5ncsc5c4)CC3)nc12 | · | · | -1.5 | 5 | ·
CCN(CC)c1ccc(NC(=O)C2CC(=O)N(Cc3ccccc3)C2)cc1 (stereo unspecified) | 10 | · | 0.5 | -2 | -3%
O=C(Oc1ccc2c(c1)OCO2)c1ccncc1 | -1 | -34 | -7.6 | 3 | 4%
O=C(Nc1ccc2c(c1)CCCN2C(=O)c1ccco1)c1cc([N+](=O)[O-])ccc1Cl | · | · | 6.3 | 0 | ·
O=C(Nc1ccccc1N1CCOCC1)c1cccnc1Cl | 10 | · | 0.6 | -3 | 6%
CC(C)(CO)Nc1nc(Nc2ccccc2)nc(Nc2ccccc2)n1 | -13 | -32 | 3.1 | 75 | 20%
COc1cc2c(cc1OC)C(C(=O)Nc1ccc3c(c1)OCCO3)C1c3ccccc3CCN1C2=O (stereo unspecified) | 14 | -44 | 4.3 | 1 | 5%
O=C(CSc1nccn1-c1ccc(F)cc1)Nc1ccc2c(c1)OCO2 | -9 | -12 | 2.6 | -1 | 5%

In the list so far, these have a Cl atom:
SMILES | Arbovirus inh | YopH PTP inh | RecA intein inh | Mtb betalactam | Mtb growth | others
O=C(Nc1ccc2c(c1)CCCN2C(=O)c1ccco1)c1cc([N+](=O)[O-])ccc1Cl | · | · | 6.3 | 0 | ·
O=C(Nc1ccccc1N1CCOCC1)c1cccnc1Cl | 10 | · | 0.6 | -3 | 6%

Continuation.
SMILES | Arbovirus inh | YopH PTP inh | RecA intein inh | Mtb betalactam | Mtb growth | others
CC(=O)c1c(C)[nH]c(C(=O)OCc2ccc(F)cc2Cl)c1C | 7 | · | -3.5 | 3 | 4%
O=C(CN1CC(=O)Oc2ccccc21)OCC(=O)c1cccc(Br)c1 | -9 | -61 | 0.4 | 11 | -7%
CN1CCN(c2c([N+](=O)[O-])cnc3ccccc23)CC1 | · | · | -1.4 | 54 | ·
CC(=O)NC(CCS(C)(=O)=O)C(=O)Nc1c(C)cccc1C (stereo unspecified) | 11 | 4 | -2.0 | -3 | 4%
O=C(c1cccs1)N1CCC(c2nc3c(nnn3Cc3c(Cl)cccc3Cl)c(=O)[nH]2)CC1 | · | · | 0.4 | 5 | ·
CCC(=O)OC1(c2ccccc2)CCN(C)CC1C (stereo unspecified) | -3 | · | · | 1 | 3%
O=C(Oc1ccc2c(c1)CCC2)N1CCOCC1 | 2 | 29 | 0.1 | 1 | 2%
NS(=O)(=O)c1ccc(CCNC(=O)c2cc(-c3ccccn3)nc3ccc(Br)cc23)cc1 | -17 | · | -2.5 | 2 | 3%
CN(C)c1ccc([C@@H]2[C@@H]([N+](=O)[O-])[C@H]3C=Cc4ccccc4N3[C@H]2C(=O)c2ccc(Cl)cc2)cc1 | 15 | 2 | · | 53 | -1%
O=C(CSCc1ccccc1)N/N=C/c1cc2c(cc1Br)OCO2 | 3 | -28 | 0.2 | 1 | 7%
Cc1ccc(-c2[nH]c3ccccc3c2C(C[N+](=O)[O-])c2ccco2)cc1 (stereo unspecified) | -31 | -5 | 12 | -5 | 14%
CCCCn1c(N)c(N(CC(C)C)C(=O)c2ccncc2)c(=O)[nH]c1=O | · | · | -1.1 | -7 | ·
Cc1nn(-c2ccccc2)c(C)c1/C=N/NC(=O)c1cnccn1 | · | · | 0.0 | -9 | -10%
COc1cc(C(C(=O)NC2CCCC2)N(Cc2ccccc2)C(=O)c2snc(C(N)=O)c2N)ccc1O (stereo unspecified) | · | · | -0.9 | 7 | ·
COc1ccccc1CNC(=O)COC(=O)c1ccccc1SCC(=O)N1CCCC1 | · | · | 1.1 | -12 | ·
Cc1ccc(C)c(NC(=O)CCN2CC(C)OC(C)C2)c1 (stereo unspecified) | 3 | -38 | -4.3 | -27 | 1%
CC(=O)c1c(C)[nH]c(C(=O)NCCc2ccc(Cl)cc2)c1C | 0 | · | -0.6 | 0 | -2%
O=C(CC1Oc2ccccc2NC1=O)NCCCN1CCCC1=O (stereo unspecified) | 4 | -43 | · | 9 | -10%
OCCCCNCc1ccc(OCc2ccc(Cl)cc2Cl)cc1 | -35 | -27 | 0.0 | 34 | 5%
Cc1ccccc1NC1=C(Cl)C(=O)OC1OC(C)C (stereo unspecified) | 4 | -4 | · | 6 | -1%
CCCn1nnnc1NC(=O)c1ccc(C)cc1Cl | -11 | -11 | -1.7 | 78 | ?
Cc1nn2c(-c3ccncc3)ccnc2c1Cl | 9 | · | -2.2 | 0 | 0%
COc1ccc(NC(=O)CCCc2c[nH]c3ccccc23)cc1OC | -1 | -10 | 1.0 | 4 | 6%
O=C1NCCN1Cc1ccccc1F | 12 | -32 | 1.8 | · | 3%
CC[n+]1c(-c2ccc(C)cc2)csc1Nc1c(C)n(C)n(-c2ccccc2)c1=O | 6 | -18 | 2.9 | 3 | 4%
CN(C)/C=C(/C(=O)c1ccc(Cl)cc1)S(=O)(=O)c1ccccc1 | -2 | -30 | -0.8 | -10 | 0%
CC12CCC(C(=O)Nc3cccnc3)(CC1=O)C2(C)C (stereo unspecified) | 0 | -14 | -0.3 | 5 | -15%
Cc1ccc(SCCNC(=O)c2ccc([N+](=O)[O-])c(C)c2)cc1 | · | · | -0.4 | 5 | ·
OCCn1c(SC2CCCCC2)nc2ccccc21 | 6 | 0 | 0.6 | -3 | -5%
Nc1cccc2nc3ccccc3cc12 | -32 | -13 | i | 40 | 8%
Cc1ccc(C(=O)n2nc(-n3cccc3)c3c(C)cc(C)nc32)cc1 | -7 | · | 4.8 | · | 7%
Cc1ccccc1NC(=O)Nc1ccccc1C(=O)NCc1ccccc1 | 0 | -109 | -1.8 | 1 | 0%
CCOC(=O)Cn1cc(C(=O)C(C)(C)C)c2ccccc21 | 0 | · | -5.0 | 5 | -1%
Cc1onc(-c2ccccc2)c1C(=O)Nc1ccc2c(C)cc(=O)oc2c1 | 14 | -14 | -1.8 | 30 | 1% | Arbovirus inh repeat=0
COc1ccc(NC(=O)CSc2nncn2C)cc1OC | 7 | -18 | 0.0 | -10 | 3%
CCCCCn1c2nc3ccccc3nc2c2c(=O)n(CC(C)C)cnc21 | 7 | 9 | 0.2 | -5 | -3%
O=C(COc1ccccc1)N=C1SC2CS(=O)(=O)CC2N1c1cccc(F)c1 (stereo unspecified) | · | · | 1.4 | 8 | ·
O=C(NCc1nnc(SC/C=C/c2ccccc2)o1)c1ccco1 | -3 | -30 | 1.5 | 21 | 8%
CNC(=O)ON(C(=O)NC)C1N(C)C(=S)SC1(C)C (stereo unspecified) | 4 | -33 | -4.4 | 6 | -2%
CC1CCc2sc(C(=O)NCC(C)(C)N3CCOCC3)cc2C1 (stereo unspecified) | · | · | -0.2 | -6 | ·
Cc1ccc(S(=O)(=O)N2CCC(=O)N(C(COCc3cccc(C)c3)C(C)C)CC2)cc1 (stereo unspecified) | -5 | -27 | 7.1 | 53 | 2%
CC(C)CC(OC(=O)c1ccco1)C(=O)NC1CCCC1 (stereo unspecified) | · | · | -0.8 | 1 | ·
CCC(O)(c1ccc(OC)cc1)C(CN1CCOCC1)c1ccccc1 (stereo unspecified) | 5 | · | -3.8 | 4 | 0%
O=C(NN=C1CCCC1)c1cccc(Br)c1 | · | · | 0.7 | -13 | ·
COC(=O)CN1C(=O)Nc2ccc(Br)cc2C1c1ccccc1Cl (stereo unspecified) | -27 | -10 | 2.7 | 8 | -7%
CC(C)(C)c1ccc(OCC(=O)N/N=C/c2ccsc2)cc1 | 9 | -37 | -0.9 | 0 | 7%
O=C(Cn1c(=O)oc2cc(S(=O)(=O)N3CCc4ccccc43)ccc21)NC1CCCC1 | 28 | -36 | 2.5 | 0 | -10% | Arbovirus inh repeat=22
COc1ccc(N2CCN(c3ccc(N)cc3C#N)CC2)cc1 | -24 | 4 | -2.4 | 2 | -1%
CCOC(=O)C1CCN(S(=O)(=O)c2c(C)n[nH]c2C)CC1 | 1 | -13 | 0.7 | 3 | -13%
CC(C)c1ccc(N(CC(=O)NC(C)(C)C)C(=O)CCC(=O)Nc2nccs2)cc1 | · | · | -1.3 | 0 | ·
Cc1cc(N2C(=O)C(O)=C(C(=O)c3ccco3)C2c2ccc(Cl)cc2)no1 (stereo unspecified) | · | · | -0.1 | 9 | ·
COc1ccccc1OCC(=O)NNC(=O)c1ccc2c(=O)n3c(nc2c1)CCC3 | · | · | 1.5 | -3 | ·
COC(C[C@H](O)[C@@H](C)[C@@H](O)COCc1ccccc1)OC | · | · | -3.1 | · | -7%
CC(=O)c1cccc(NC(=O)CSCc2ccccc2)c1 | 1 | -25 | -0.2 | 6 | -7%
COC(=O)c1sccc1NC(=O)CC1C(=O)NCCN1C(=O)c1ccc(F)cc1 (stereo unspecified) | · | · | -6.3 | -11 | -7%
Cc1nn(C)c(C(=O)N/N=C/c2cc3c(cc2Br)OCO3)c1Br | 13 | -23 | 1.0 | 27 | 2%
O=C(Nc1cccc(Cl)c1)OCCN1CCN(Cc2ccccc2)CCC1=O | -6 | -11 | -1.9 | -3 | -10%
CC(Oc1ccccc1Cl)C(=O)N(Cc1ccco1)C1CCS(=O)(=O)C1 (stereo unspecified) | 1 | -16 | -4.1 | -1 | -13%
CC1CCN(C(=O)COC(=O)Cc2c[nH]c3ccccc23)CC1 | · | · | 2.8 | ? | ·
Cc1ccc(C2N(c3cc(C)on3)C(=O)C3CCCN32)cc1 (stereo unspecified) | -1 | -7 | -2.0 | 4 | -9%

Pulled one by one from the entries so far:
SMILES | Arbovirus inh | YopH PTP inh | RecA intein inh | Mtb betalactam | Mtb growth | others
COC(=O)c1sccc1NC(=O)CC1C(=O)NCCN1C(=O)c1ccc(F)cc1 (stereo unspecified) | · | · | -6.3 | -11 | -7%
COc1ccccc1OCC(=O)NNC(=O)c1ccc2c(=O)n3c(nc2c1)CCC3 | · | · | 1.5 | -3 | ·
O=C(Nc1cccc(Cl)c1)OCCN1CCN(Cc2ccccc2)CCC1=O | -6 | -11 | -1.9 | -3 | -10%

(next part)
SMILES | Arbovirus inh | YopH PTP inh | RecA intein inh | Mtb betalactam | Mtb growth | others
COc1ccc(C(=O)COC(=O)c2cc(=O)[nH]c3ccccc23)c(OC)c1 | · | · | 1.3 | -2 | ·
C=CCNC(=O)c1ccccc1NC(=O)c1ccccc1N(C)S(C)(=O)=O | -5 | · | -1.4 | -9 | -6%
Cc1cccc(N(Cc2ccccc2)C(=O)c2ccccc2F)c1 | · | · | 11 | -7 | ·
COc1ccc(NC(=O)CN2CCC(NC(=O)C3CCCCC3)CC2)cc1 | -7 | -1 | 0.0 | -3 | -7%
COc1ccc(OC)c(NC(=O)c2cccnc2Sc2cc(C)ccc2C)c1 | 7 | -14 | 9.5 | 6 | 12%
CC(=O)c1cccc(NC(=O)Nc2nc(C)cc(C)n2)c1 | · | · | -0.5 | -6 | ·
CCN(CC)CCC(c1ccc(N(C)C)cc1)c1c(OC)cc(OC)c2c(-c3ccccc3)cc(=O)oc12 (stereo unspecified) | · | · | · | -5 | 14%
COc1ccccc1NS(=O)(=O)c1ccc(C(=O)NCC(c2ccccc2OC)N(C)C)cc1 (stereo unspecified) | · | · | 0.4 | -3 | ·
Cc1ccc(S(=O)(=O)NN2C(=O)c3ccccc3NC2c2ccccn2)cc1 (stereo unspecified) | 15 | · | -2.7 | -3 | -8%
Cc1cc(C)c(C2=CSC3=NS(=O)(=O)CCN23)c(C)c1 | -15 | · | -0.5 | 1 | -3%
CCCc1ccc2oc(C(=O)N(C)Cc3cnccn3)c(C)c2c1 | · | · | 2.9 | -2 | ·
Clc1nc(-c2ccccc2)c2ccccc2n1 | · | · | 1.4 | -2 | ·
CCOc1ccccc1NC(=O)CSc1nnc2c(CC)c(C)nc(N)n12 | 6 | -11 | -1.2 | -8 | -5%

These rows are one share of the data; count on the stated rates, not on these rows.
